Compound activity deposited in PubChem by several laboratories.
FGF22 binding = shifts melting point of recombinant human FGF22; recombinant FGF22 thermal shift, SYPRO orange fluorescence; percent of sucrose octasulfate shift, DMSO zero; calls only at 9.99 µM; 1.5% of 340,000 active; AID 651658;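 active = melting point raised past a set limit in the mean and every replicate; inconclusive = no clear call; three in four hits are not shown here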
Target sequence (Q9HCT0 whole entry, looked up): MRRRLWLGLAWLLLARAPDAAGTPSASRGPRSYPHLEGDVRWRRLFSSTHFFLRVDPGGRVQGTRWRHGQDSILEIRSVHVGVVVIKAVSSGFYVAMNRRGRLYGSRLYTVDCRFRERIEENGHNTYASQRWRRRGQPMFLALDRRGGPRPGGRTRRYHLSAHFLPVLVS
E coli growth = inhibitors of Escherichia coli growth; OD600, 23 h; hits give low values; OD600 absorbance (test concentration not listed); 0.21% of 330,000 active; AID 1053175;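 active = OD600 absorbance below the run mean of sample wells minus 3.6 SD, in any replicate, cut at about 0.56 in these data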;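 note: stock transfer was 300 nL into about 60 µL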
Ecoli rRNA inh = inhibits bacterial ribosomal RNA function over humanized ribosomes; E. coli WT GFP vs humanized-ribosome RFP mutants, fluorescence, 24 h; hits give low values; DMSO median 0, no signal -100; GFP signal change (wild-type ribosome), % (no concentration beside the values); 1.6% of 350,000 active; AID 720706;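 active = significant combined selectivity score with lowered wild-type GFP, culture density cut under 30%, mutant RFP and density less affected; inactive = any of these conditions unmet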; note: one replicate is shown; some compounds called inactive have numbers as strong as hits
AF4-AF9 inh = inhibitors of human MLL-AF4/AF9 interaction. P42568. AlphaScreen, biotin-AF4 peptide binding to FLAG-AF9. inhibition, % at 10 µM. AID 651704. 0.47% of 350,000 active;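 active = every replicate reaching a set inhibition limit, whatever the replicate mean, cut at about 25% in these data; inconclusive = mean inhibition reaches that limit but some replicates miss it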;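 note: 0% = plate neutral control median and 100% = total signal loss; the record names both 10 and 1 µM as test concentration; the first replicate is given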
Target sequence (P42568 whole entry, looked up): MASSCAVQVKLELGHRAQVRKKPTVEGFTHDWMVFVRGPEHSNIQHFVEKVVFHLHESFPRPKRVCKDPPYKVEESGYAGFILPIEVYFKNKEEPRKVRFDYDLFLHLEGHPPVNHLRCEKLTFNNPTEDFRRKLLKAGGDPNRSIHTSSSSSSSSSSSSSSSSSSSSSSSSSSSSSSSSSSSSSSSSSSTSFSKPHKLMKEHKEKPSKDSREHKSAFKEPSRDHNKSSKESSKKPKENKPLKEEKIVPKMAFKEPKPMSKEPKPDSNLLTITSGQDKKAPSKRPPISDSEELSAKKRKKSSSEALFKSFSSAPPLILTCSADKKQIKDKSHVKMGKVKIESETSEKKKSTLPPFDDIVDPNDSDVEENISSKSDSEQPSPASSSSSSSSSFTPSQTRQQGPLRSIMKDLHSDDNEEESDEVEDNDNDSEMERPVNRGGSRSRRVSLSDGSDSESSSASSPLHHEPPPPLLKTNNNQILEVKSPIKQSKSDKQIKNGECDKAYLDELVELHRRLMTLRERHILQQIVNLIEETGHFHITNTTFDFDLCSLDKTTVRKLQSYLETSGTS
ALR inh = human ALR oxidase inhibition via reduced H2O2 | P55789 | 3.8% of 290,000 active | inhibition, % (no concentration beside the values) | purified ALR, DTT oxidation, H2O2 HRP-luminol luminescence | AID 485317;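 active = mean and each replicate at 75% or more; inconclusive = only one of the two met; inactive = neither met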;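 note: stock transfer was 7.5 nL into about 7.5 µL; 0% = neutral wells and 100% = wells with inactivated enzyme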
Target sequence (P55789 whole entry, looked up): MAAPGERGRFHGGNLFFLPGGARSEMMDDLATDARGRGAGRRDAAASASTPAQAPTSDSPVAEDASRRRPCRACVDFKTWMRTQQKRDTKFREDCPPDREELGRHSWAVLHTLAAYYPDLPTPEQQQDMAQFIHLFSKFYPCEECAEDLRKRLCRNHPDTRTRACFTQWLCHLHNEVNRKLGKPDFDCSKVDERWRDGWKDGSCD
HNF4A DNA FP = change in binding of human HNF4 alpha to DNA | HNF4a-FITC DNA binding, fluorescence polarization, 1 h | activity change, % at 10 µM | 0.3% of 360,000 active; in the data active = activity change above about 30%, passing the limit was not always enough;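 note: controls were the assay level and a saturating level of protein; the project sought stronger binding though the title names inhibitors; some compounds called inactive have numbers as strong as hits; positive values seem to mean higher polarization but the record does not say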
Vif A3G = inhibitors of Vif binding to APOBEC3G peptide, primary screen, biochemical, TR-FRET, GST-Vif 1-94, biotin-A3G peptide, dose response retest (AID 1117319); TR-FRET GST-Vif / biotin-A3G peptide binding; higher % means a stronger effect; test concentration not given here; strong numbers were not always called active; inhibition, %; hits with a dose series show IC50 in µM; 0.57% of 260,000 active;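 active = above the screen mean plus three standard deviations and confirmed in dose response; inconclusive = results disagree or hit not tested in dose response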;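 note: Vif residues 1-94 fused to GST binding biotinylated APOBEC3G peptide 110-148; 0% = full assay without inhibitor and 100% = GST in place of GST-Vif; retest series ran down from 100 µM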
Ecoli rRNA inh OD600 = further read-out of Ecoli rRNA inh, marked with its call; OD600 change, %; measured here: OD600 growth;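 optical density of the mix in the first replicate; 0 = DMSO median and -100 = no signal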
Ecoli rRNA inh RFP = further read-out of Ecoli rRNA inh, marked with its call; RFP signal change, %; measured here: RFP humanized mutant strains;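 first replicate; 0 = DMSO median and -100 = no signal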
* = called active by the depositor; i = inactive; ? = inconclusive; · = no result given; + = active, no number. Only part of the results is shown; the hit share may differ from the screen's.

SMILES | FGF22 binding | E coli growth | Ecoli rRNA inh | Ecoli rRNA inh OD600 | Ecoli rRNA inh RFP | AF4-AF9 inh | ALR inh | HNF4A DNA FP | Vif A3G
CCOC(=O)C1C(=O)CC(C)(O)C(C(=O)OCC)C1c1cccc(OC)c1 (stereo not drawn) | i | 0.69 | 4 | 2 | -0.5 | 3.1 | -3 | -2.7 | 2%
Cc1ccc(S(=O)(=O)N2CCN(C(=O)Cc3ccccc3)CC2)cc1C | i | 0.68 | · | · | · | 0.4 | 0 | -1.4 | 0%
O=S(=O)(c1ccc(Cl)nc1)N(Cc1ccccc1)Cc1ccccc1 | · | 0.7 | · | · | · | · | -2 | -0.5 | ·
COc1cc2[nH]c(=O)n(Cc3ccc(C(=O)NCCCN4CCN(C)CC4)cc3)c(=O)c2cc1OC | · | 0.72 | · | · | · | · | -2 | 3.3 | 1%
O=C(C[C@H]1C[C@@H]2c3cc(NC(=O)CC4CC4)ccc3O[C@@H]2[C@H](CO)O1)NCCN1CCCCC1 | i | · | 9 | 18 | 1.7 | 0.7 | · | · | ·
Cc1cc(=O)n2[nH]cnc2n1 | i | 0.66 | 7 | 4 | 1.0 | 0.8 | -2 | 0.6 | ·
Cc1ccc(-c2cnc(C(O)c3cc(F)cc(Cl)c3)[nH]2)cc1 (stereo not drawn) | i | · | -8 | -41 | 28 | 9.6 | · | 7.9 | ·
Cc1cc(C(F)(F)F)n(-c2nc(C(=O)Nc3cccnc3)cs2)n1 | i | 0.72 | -7 | -2 | -2.2 | -2.8 | 5 | 3.7 | -5%
Cc1cc(C)c(NC(=O)CSCc2c(C)noc2C)c(Cl)c1 | i | 0.64 | 3 | 4 | -1.8 | -11 | · | 0.1 | -5%
O=C(Nc1cccnc1)c1ccc(NS(=O)(=O)c2cccc([N+](=O)[O-])c2)cc1 | + | 0.31* | 4 | -2 | -4.5 | 7.1 | -10 | -1.7 | 11%
CCOC(=O)c1sc(NC(=O)CCCCl)nc1C | · | 0.67 | · | · | · | · | -3 | -3.0 | ?
CC1=CC(C)(C)NC(=S)N1c1ccccc1 | i | 0.65 | 7 | 1 | 5.0 | -14 | -12 | 2.4 | -1%
CCCCN(C)C1CCN(C(=S)Nc2cccc(SC)c2)CC1 | i | 0.68 | -2 | -6 | -9.2 | 4.1 | -4 | -5.3 | ·
CCN1CCN(P2(=O)C=C(c3ccccc3)OC(c3ccccc3)=C2)CC1 | i | 0.67 | 12 | 7 | 11 | 3.1 | -4 | -2.8 | 1%
CN(C)c1ccnc(Oc2ccc(F)cc2)c1C#N | i | 0.67 | 5 | 4 | 2.1 | -6.8 | -5 | -4.4 | 10%
CCC1=C2CC[C@H]3C(=O)N(C)C(=O)[C@H]3[C@H]2[C@@]2(Cc3ccccc3)C(=NCCOC)OC(=O)N2C1=O | i | · | 2 | 12 | -5.1 | -1.0 | -11 | 2.8 | 11%
O=C(CN1C(=O)C2CC=C(Cl)CC2C1=O)Nc1ccc(C(=O)O)cc1 (stereo not drawn) | · | 0.68 | · | · | · | · | 1 | 0.2 | 3%
CCCCCCCCC(=O)c1c(OC)oc(C=O)cc1=O | i | · | · | · | · | -6.7 | · | 92 | 32%
Cc1ccc(S(=O)(=O)Nc2ccc3c(c2)C(=O)N([C@H](C)CO)C[C@H](C)[C@@H](CN(C)S(=O)(=O)c2cccs2)OCCCC[C@H](C)O3)cc1 | i | · | -4 | -6 | -1.9 | 0.0 | · | · | ·
Cc1ccc(S(=O)(=O)Nc2ccc3c(c2)CC(=O)N([C@H](C)CO)C[C@H](C)[C@@H](CN(C)C(=O)Nc2ccccc2)O3)cc1 | i | · | -1 | -5 | 1.1 | -1.8 | · | · | ·
CN(C)c1ccnc(N(Cc2ccccc2)Cc2ccccc2)c1C#N | · | 0.69 | · | · | · | · | 0 | -1.2 | 1%
CO/N=C(/CS(=O)Cc1ccc(Cl)cc1)c1ccc(Cl)cc1 (stereo not drawn) | · | · | · | · | · | · | 2 | -2.1 | -1%
CC(=O)/C(=C\Nc1ccc(OCc2ccccc2)cc1)c1ccccc1 | · | 0.74 | · | · | · | · | -3 | 2.0 | -1%
N#C/C(=C/c1cccn1-c1cccc(C(=O)O)c1)c1ccc(F)cc1 | i | 0.68 | -27 | -36 | -12 | -2.2 | · | -8.6 | 0%
COc1ccccc1OCCSc1nc2ccccc2c(=O)[nH]1 | · | 0.69 | · | · | · | · | -12 | -2.6 | -58%
COC(=O)/C(C#N)=C/N(C)C | i | 0.68 | -1 | 9 | -2.6 | -1.5 | · | -3.5 | -20%
Cn1nnnc1NCc1ccc(Cl)cc1 | i | 0.67 | 10 | 6 | 0.5 | -0.6 | · | 0.4 | 2%
O=C(NCCCN1CCC(Cc2ccccc2)CC1)C1CCC(=O)N1C1CCCC1 (stereo not drawn) | i | 0.73 | 1 | 10 | 2.7 | -3.2 | -18 | 11 | 4%
C[C@H](CO)N1C[C@H](C)[C@H](CN(C)Cc2ccc(F)cc2)Oc2cc(C#CCN(C)C)ccc2S1(=O)=O | i | · | -2 | 4 | 5.2 | 23 | · | · | ·
Cc1ccc2nc(NC(=O)c3ccccn3)sc2c1 | i | 0.65 | -19 | 12 | 9.3 | -4.2 | -2 | 4.6 | -10%
CC(Sc1ccc2c(c1)OCCO2)C(=O)Nc1ncc(Cl)cc1Cl (stereo not drawn) | · | 0.76 | · | · | · | · | 99* | 1.8 | -12%
CNS(=O)(=O)c1cccc(C(=O)NCC(c2cccs2)N2CCOCC2)c1 (stereo not drawn) | i | 0.6 | 21 | 7 | -1.2 | 1.1 | -2 | -0.3 | -8%
C[C@H](CO)N1C[C@H](C)[C@@H](CN(C)C(=O)Nc2cccc3ccccc23)OCCCC[C@H](C)Oc2ccc(NS(=O)(=O)c3cccs3)cc2C1=O | i | · | -7 | -2 | -3.5 | 2.3 | · | · | ·
C/C(=N\O)c1oc2ccc3c(C)cc(=O)oc3c2c1C | i | · | 6 | 8 | 0.9 | -5.9 | 0 | · | 3%
Cc1ccc(CN2CCCC2(C)C(=O)NC(C)C)cc1 (stereo not drawn) | i | · | 1 | 10 | -6.2 | -4.2 | · | -1.1 | ·
COc1cc(OC)cc(C(=O)Nc2ccc3c(c2)COC3=O)c1 | · | 0.69 | · | · | · | · | -4 | 1.3 | 8%
COc1cc(S(=O)(=O)NCCN2CCOCC2)ccc1-n1cnnn1 | i | 0.72 | 14 | 8 | -5.0 | -2.8 | 1 | 1.7 | 3%
O=C(CNC(=O)c1cccc(Br)c1)N/N=C/c1cc(Br)cc(Br)c1O | + | · | 13 | 3 | -3.2 | -3.1 | -4 | 0.4 | ·
O=S(=O)(N[C@H]1CC[C@H](CCn2cc(-c3cccnc3)nn2)O[C@H]1CO)c1ccccc1 | i | · | 2 | 8 | -2.8 | -0.5 | · | · | ·
COC(=O)c1sc(NC(=O)COc2cccc(C)c2)nc1C | · | 0.66 | · | · | · | · | -5 | 1.2 | -6%

Individual results from the entries so far.
Ecoli rRNA inh OD600, `CNS(=O)(=O)c1cccc(C(=O)NCC(c2cccs2)N2CCOCC2)c1` (stereo not drawn) : 7
E coli growth, `COC(=O)c1sc(NC(=O)COc2cccc(C)c2)nc1C` : 0.66

Other structures.
SMILES | FGF22 binding | E coli growth | Ecoli rRNA inh | Ecoli rRNA inh OD600 | Ecoli rRNA inh RFP | AF4-AF9 inh | ALR inh | HNF4A DNA FP | Vif A3G
O=C(C[C@H]1CC[C@@H](NS(=O)(=O)c2ccc(F)cc2)[C@H](CO)O1)NCc1ccncn1 | i | · | -1 | 3 | -1.3 | -0.7 | · | · | ·
O=C(c1ccoc1)N1CCC2(CC1)Oc1ccc(F)cc1C(=O)C21CC(c2cccnc2)=NO1 (stereo not drawn) | i | 0.62 | -8 | -8 | 2.2 | 4.3 | 7 | 0.2 | -3%
CCOc1ccccc1-n1nnnc1SCC(=O)OC | · | 0.63 | 10 | -6 | -0.8 | 0.6 | 5 | 3.5 | -7%
CSc1ccc(Cl)c(C(=O)OCC(=O)N2CCOCC2)c1 | · | 0.76 | · | · | · | · | -21 | 3.1 | -5%
CN(C(=O)C1CCC(=O)N(CCc2ccc(Cl)cc2)C1)C1CCOCC1 (stereo not drawn) | i | 0.71 | 7 | 9 | 1.0 | -0.5 | -1 | 1.9 | ·
CCOC(=O)CSc1nnc(NC(=O)c2cccc([N+](=O)[O-])c2)s1 | · | 0.71 | · | · | · | · | 8 | -1.3 | 15%
CCc1cc2c(=O)c(-c3cnn(-c4ccccc4)c3)c(C(F)(F)F)oc2c(CN(C)C)c1O | i | 0.74 | -1 | -3 | -8.6 | 2.3 | -9 | 1.9 | -16%
C=CCSc1nnc(-c2nnc(SCC=C)n2CC)n1CC | · | 0.71 | · | · | · | · | -3 | 1.2 | -1%
CC(C)NC(=O)Nc1ccc2c(c1)CC(=O)N([C@H](C)CO)C[C@@H](C)[C@@H](CN(C)Cc1ccc(Cl)c(Cl)c1)O2 | i | · | -10 | -30 | 5.0 | -3.1 | · | · | ·
Cc1[nH][nH]c(=O)c1C(c1ccc(F)cc1)c1c(C)[nH][nH]c1=O | i | 0.67 | 18 | 5 | 0.7 | -19 | 9 | -0.5 | -4%
COc1ccccc1NC(=O)c1cc2c(CO)cnc(C)c2oc1=Nc1ccccc1 | i | 0.7 | 6 | 12 | 1.7 | 1.6 | -1 | -3.2 | 7%
CCC(C)NC(=O)C1CCCN(c2nc(C)cc(OC)n2)C1 (stereo not drawn) | · | 0.72 | · | · | · | · | 11 | 0.3 | 3%
CCOC(=O)Cc1csc(NC(=O)c2c(-c3c(F)cccc3Cl)noc2C)n1 | · | 0.7 | · | · | · | · | · | 0.8 | 19%
C[C@@H]1CN([C@@H](C)CO)C(=O)c2cc(NC(=O)CCCN(C)C)ccc2O[C@@H]1CN(C)Cc1ccc2c(c1)OCO2 | i | · | 3 | -4 | -0.6 | 0.3 | · | · | ·
Nc1ncnc2c1ncn2[C@@H]1O[C@H](CCC(=O)NCc2ccccc2)[C@@H](O)[C@H]1O | i | · | 3 | 0 | -3.1 | -5.7 | · | 2.0 | ·
CCOC(=O)CN=C/C(C(C)=O)=C(/C)O | i | 0.69 | 8 | 6 | 1.5 | -2.4 | -17 | -2.0 | 18%
CCCCCC(C)NC(=O)c1cc(S(=O)(=O)N2CCCCC2)ccc1N1CCOCC1 (stereo not drawn) | i | 0.69 | -1 | -6 | 6.9 | ? | -2 | -1.5 | 1%
CCCC#Cc1ccc2c(c1)O[C@@H](CN(C)Cc1cccnc1)[C@H](C)CN([C@H](C)CO)S2(=O)=O | i | · | -40 | -52 | 32 | 4.0 | · | · | ·
O=C(N/N=C/C=C\c1ccccc1[N+](=O)[O-])c1ccccn1 | i | · | 8 | 14 | 2.2 | -0.3 | -18 | 3.3 | 28%
CC(=O)Oc1ccc(C(=O)c2ccccc2)c(OC(C)=O)c1 | i | 0.66 | 2 | 3 | 2.4 | -5.1 | 98* | -0.7 | -4%
CC(/C=C/C(=O)c1ccc(C)cc1)=C\c1ccccc1 | · | 0.71 | · | · | · | · | -16 | -3.5 | -4%
CCOCCn1c(SCc2ccc(C)cc2)nc2c1c(=O)[nH]c(=O)n2C | i | 0.76 | -2 | 19 | -6.5 | 1.4 | -5 | 2.0 | 3%
COc1cccc(-n2ccnc2SCC(=O)Nc2cc(C)on2)c1 | i | 0.71 | 12 | 20 | 0.9 | -1.1 | 83* | -2.5 | -15%

In a second layout: entries from further up.
Compound	FGF22 binding	E coli growth	Ecoli rRNA inh	Ecoli rRNA inh OD600	Ecoli rRNA inh RFP	AF4-AF9 inh	ALR inh	HNF4A DNA FP	Vif A3G
CCC(C)NC(=O)C1CCCN(c2nc(C)cc(OC)n2)C1 (stereo not drawn)	·	0.72	·	·	·	·	11	0.3	3%
CC(/C=C/C(=O)c1ccc(C)cc1)=C\c1ccccc1	·	0.71	·	·	·	·	-16	-3.5	-4%
